UCH37 inh – inhibitors of human UCH37 deubiquitinase, primary screen, biochemical, Ub-AMC cleavage, fluorescence; Ubiquitin carboxyl-terminal hydrolase isozyme L5 (Homo sapiens), Q9Y5K5; 0.33% of 330,000 active; AID 588478, 2011; purified proteasome/UCH37; inhibition, % (test concentration not listed);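 active means mean of two replicates above 20%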;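 further: 0% = compound-free wells with enzyme and 100% = wells lacking proteasome; stock transfer was 100 nL into about 20 µL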
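system = Proteasome-associated human UCH37 deubiquitinase | amount = 0.15 nM proteasome as dispensed | medium = pH 7.4 Tris-HCl (50 mM) with ovalbumin, ATP-MgCl2, DTT | incubation = 30 min preincubation with enzyme, 25 min cleavage at room temperature | detection = AMC fluorescence 355/460 nm | read-out basis = percent inhibition | controls = no-proteasome and no-compound wells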
Beta2AR agonist – beta2AR agonists driving receptor internalization, primary screen, cell-based, FAP fluorogen, flow cytometry | Beta-2 adrenergic receptor (Homo sapiens), P07550 | Am2.2-beta2AR cells; reference of the scale not given here | response, % (test concentration not listed) | 0.43% of 340,000 active;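 active means response above a set limit, near 3 SD of response in nonfluorescent compounds, cut at about 42% in these data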;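 further: stock transfer was 100 nL into about 11 µL; a reference agonist was the positive control; negative values mostly stem from fluorescent compounds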
HNF4A DNA FP – change in binding of human HNF4A to DNA, primary screen, biochemical, fluorescence polarization, FITC-DNA. Hepatocyte nuclear factor 4-alpha (Homo sapiens), P41235. 1 h. activity change, % at 10 µM. 0.3% of 360,000 active. AID 1224865, 2016; in the data active means activity change above about 30%, passing the limit was not always enough;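 further: controls were the assay level and a saturating level of protein; the project sought stronger binding though the title names inhibitors; some compounds called inactive have numbers as strong as hits; positive values seem to mean higher polarization but the record does not say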
Target sequence (P41235 whole entry, looked up): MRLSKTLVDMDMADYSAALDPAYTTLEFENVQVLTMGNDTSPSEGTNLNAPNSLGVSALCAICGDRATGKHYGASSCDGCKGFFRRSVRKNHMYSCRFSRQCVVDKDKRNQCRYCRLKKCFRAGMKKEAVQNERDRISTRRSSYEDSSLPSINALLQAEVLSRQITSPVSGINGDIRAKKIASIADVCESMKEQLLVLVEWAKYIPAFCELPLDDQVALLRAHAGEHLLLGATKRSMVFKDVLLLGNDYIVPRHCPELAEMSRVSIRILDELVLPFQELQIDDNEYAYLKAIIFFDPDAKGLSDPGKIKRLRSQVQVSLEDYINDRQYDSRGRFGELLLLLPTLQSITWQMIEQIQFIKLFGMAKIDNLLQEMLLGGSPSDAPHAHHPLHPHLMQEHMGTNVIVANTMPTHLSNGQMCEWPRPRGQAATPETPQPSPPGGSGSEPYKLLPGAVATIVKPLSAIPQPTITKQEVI
E coli growth – E. coli growth inhibition, primary screen, OD600; OD600 absorbance (concentration not given with the values); Escherichia coli growth, 23 h; hits give low values; 0.21% of 330,000 active; AID 1053175, 2014;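 active means OD600 absorbance below the run mean of sample wells minus 3.6 SD, in any replicate, cut at about 0.56 in these data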;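 further: stock transfer was 300 nL into about 60 µL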
Ecoli rRNA inh – reduced GFP signal of wild-type E. coli, primary screen, bacterial rRNA inhibitor project, GFP/RFP fluorescence, OD600, single point; 1.6% of 350,000 active; E. coli WT GFP vs humanized-ribosome RFP mutants, 24 h; hits give low values; DMSO median 0, no signal -100; GFP signal change (wild-type ribosome), % (concentration not given with the values);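 active means significant combined selectivity score with lowered wild-type GFP, culture density cut under 30%, mutant RFP and density less affected; inactive means any of these conditions unmet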; further: one replicate is shown; some compounds called inactive have numbers as strong as hits
ALR inh – inhibitors of human ALR sulfhydryl oxidase, primary screen, biochemical, H2O2 detection, HRP-luminol luminescence, single point. FAD-linked sulfhydryl oxidase ALR (Homo sapiens), P55789. purified ALR, DTT oxidation. inhibition, % (no concentration beside the values). 3.8% of 290,000 active. AID 485317, 2010;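 active means mean and each replicate at 75% or more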;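 further: stock transfer was 7.5 nL into about 7.5 µL; 0% = neutral wells and 100% = wells with inactivated enzyme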
Target sequence (P55789 whole entry, looked up): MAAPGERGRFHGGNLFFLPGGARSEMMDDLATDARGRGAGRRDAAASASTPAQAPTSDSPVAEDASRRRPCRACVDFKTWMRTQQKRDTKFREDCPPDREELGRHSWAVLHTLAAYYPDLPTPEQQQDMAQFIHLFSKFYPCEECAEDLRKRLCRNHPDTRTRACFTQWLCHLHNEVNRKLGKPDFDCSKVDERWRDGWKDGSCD
FGF22 binding – binders of human FGF22 protein, primary screen, FGF22 synaptogenesis inhibitor project, biophysical, thermal shift, single point; Fibroblast growth factor 22 (Homo sapiens), Q9HCT0; recombinant FGF22 thermal shift, SYPRO orange fluorescence; percent of sucrose octasulfate shift, DMSO zero; calls only at 9.99 µM; 1.5% of 340,000 active; AID 651658, 2012;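 active means melting point raised past a set limit in the mean and every replicate; three in four hits are not shown here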
Target sequence (Q9HCT0 whole entry, looked up): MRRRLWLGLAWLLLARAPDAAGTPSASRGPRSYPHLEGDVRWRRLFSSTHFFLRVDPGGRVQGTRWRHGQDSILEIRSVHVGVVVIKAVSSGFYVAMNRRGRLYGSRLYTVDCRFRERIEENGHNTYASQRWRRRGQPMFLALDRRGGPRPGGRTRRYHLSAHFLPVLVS
Ecoli rRNA inh OD600 – recorded beside Ecoli rRNA inh, whose call it bears; OD600 change, %; measured here: OD600 growth;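 optical density of the mix in the first replicate; 0 = DMSO median and -100 = no signal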
Ecoli rRNA inh RFP – second read-out of Ecoli rRNA inh, no call of its own (marks repeat the call); RFP signal change, %; measured here: RFP humanized mutant strains;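 first replicate; 0 = DMSO median and -100 = no signal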
* = called active by the depositor; i = inactive; nt = not tested or not shown. A portion of the library. The share of hits here may be higher or lower than overall.

SMILES	UCH37 inh	Beta2AR agonist	HNF4A DNA FP	E coli growth	Ecoli rRNA inh	Ecoli rRNA inh OD600	Ecoli rRNA inh RFP	ALR inh	FGF22 binding
CCNC(=O)N1C(=O)C2(OCCO2)c2cc(Br)ccc21	4.7	3	-0.1	0.71	nt	nt	nt	-15	nt
C=CCNC(=O)CSc1nnc(-c2cccs2)o1	0.6	-8	0.7	0.76	nt	nt	nt	-2	nt
COc1ccc(C(=O)NC2=NCCS2)c(OC)c1	5.6	2	4.1	0.72	8	0	-0.8	39	i
COCCN(C(=O)c1oc2ccccc2c1COC)c1c(N)n(CC(C)C)c(=O)[nH]c1=O	-2.8	-6	6.7	0.71	5	3	-0.1	-8	i
CCc1cc(=O)oc2cc(C)cc(OCC(=O)NCCN3CCOCC3)c12	-107	2	-3.8	0.67	-2	-1	-1.6	-2	i
COc1ccc(C(O)c2nc(-c3ccc(N(C)C)cc3)cs2)cc1 (stereo not drawn)	nt	nt	-0.8	nt	5	-18	9.7	nt	i
CC1=CC(C)C(/C=N/n2cnnc2)C(C)C1 (stereo not drawn)	nt	-1	-3.3	nt	nt	nt	nt	-4	nt
C=CC[C@H](CC(=O)N(CCO)Cc1ccccc1)C(=O)N[C@H](COC(=O)[C@@H](CC=C)Cc1ccc(F)cc1)Cc1ccccc1	13	19	3.8	nt	10	11	-6.9	-6	i
COc1cc(NC(=O)CNc2cccc(S(=O)(=O)N3CCCC3)c2)cc(OC)c1	4.5	9	7.0	0.74	0	3	0.1	0	i
COc1ccccc1C=NN=C1c2ccccc2-c2ccccc21	nt	-8	1.5	nt	9	11	-1.8	nt	i
Cc1cc(C)cc(NC(=O)CN2CCN(CCN=CC3=C(O)CC(c4ccc(Cl)cc4)CC3=O)CC2)c1 (stereo not drawn)	2.4	3	8.0	0.71	12	-2	3.8	-22	i
Nc1cccc(C(=O)NCCNC(=O)c2cccc(N)c2)c1	3.7	-7	-1.2	0.69	16	22	3.3	4	i
COCCCNC(=O)C[C@@H]1C[C@@]2(C(=O)OC)CC(C)(C)CC=C2N(CCc2ccc(OC)c(OC)c2)C1=O	nt	nt	-2.4	nt	11	12	0.3	nt	i
CC(NC(=O)c1ccccc1)C(=O)OCC(=O)c1c(N)n(C)c(=O)n(C)c1=O (stereo not drawn)	4.7	-1	-1.3	0.7	nt	nt	nt	-2	i
CC12CCC(C(=O)NNC(=O)c3ccc(F)cc3)(OC1=O)C2(C)C (stereo not drawn)	-0.9	0	-22	0.7	2	5	-2.5	0	i
Nc1cc(=O)[nH]c(=O)n1Cc1ccco1	0.6	-3	0.8	0.7	nt	nt	nt	0	nt
CC(CN1CCOCC1)OC(=O)Cc1ccc(Cl)cc1 (stereo not drawn)	-0.6	5	1.6	0.7	6	7	0.1	-2	i
O=C(CNC(=O)OCc1ccccc1)NC1CCCCCCC1	-2.6	-1	0.3	0.7	nt	nt	nt	-7	nt
COc1ccc(S(=O)(=O)N2CCC(C(=O)NCc3ccco3)CC2)cc1	-1.6	1	-2.3	0.7	nt	nt	nt	-2	nt
COc1ccc(NC(=O)CN(C)C(=O)c2cccc(S(=O)(=O)Nc3ccc(OC)cc3)c2)cc1	5.5	8	1.2	0.67	0	-9	1.7	1	i
COC(=O)CSc1nnc(SCc2ccc(OC)cc2)s1	2.3	9	0.7	0.71	nt	nt	nt	-6	nt
Cc1ccccc1S(=O)(=O)NC(=O)C1(C)CCN1C(=O)CCc1ccccc1 (stereo not drawn)	nt	nt	-1.6	nt	9	17	14	nt	i
Cc1ccc(OCc2cc(C(=O)NCc3cn4ccccc4n3)no2)cc1C	-0.8	-6	3.5	0.64	2	-32	-1.4	1	i
COc1cc(C(=O)Oc2ccc3ccc(O)cc3c2)cc(OC)c1OC	0.7	-3	-1.3	0.67	-21	-14	-0.7	3	i
COc1cccc(CN2CCNC(=O)C2CC(=O)O)c1OC (stereo not drawn)	6.7	7	0.8	0.74	7	7	0.7	-24	i
Further structures follow.
SMILES	UCH37 inh	Beta2AR agonist	HNF4A DNA FP	E coli growth	Ecoli rRNA inh	Ecoli rRNA inh OD600	Ecoli rRNA inh RFP	ALR inh	FGF22 binding
O=[N+]([O-])c1ccc2c(c1)nc1n2CCN(c2ccccc2)C1	5.2	-10	1.9	0.69	16	18	5.9	-4	i
CC(=O)Nc1ccc(NC(=O)c2csc([C@@H]3C[C@H](O)[C@@H](CO)O3)n2)cc1	nt	nt	0.4	nt	12	20	1.1	nt	i
COC(=O)/C(N=Nc1c(C)n(C)n(-c2ccccc2)c1=O)=C(\C)O	6.0	4	3.9	0.69	nt	nt	nt	72	nt
COC(=O)C1C(O)=CC(=O)CC1C (stereo not drawn)	-0.1	-6	2.4	0.68	nt	nt	nt	-11	nt
CCOC(=O)NC1(Nc2ccc(C)cc2)Oc2ccccc2O1	4.8	-1	-0.8	0.66	nt	nt	nt	11	i
O=C(CSc1nnnn1CCCO)Nc1ccc2c(c1)OCO2	0.2	-1	-5.7	0.7	-3	8	1.0	nt	i
Cc1ccc2nc(-c3ccccc3)cn2c1	-7.7	-4	0.9	0.65	nt	nt	nt	38	nt
CC1CCN(C(=O)c2ccc(Br)c(S(=O)(=O)N3CCOCC3)c2)CC1	4.3	2	6.2	0.68	7	5	3.9	3	i
O=C(Oc1c(-c2ccccc2)oc2ccccc2c1=O)c1ccccc1	2.1	-2	4.3	0.66	nt	nt	nt	-4	nt
CCCC(=O)Nc1nnc(C2CCCO2)s1 (stereo not drawn)	0.9	-7	2.5	0.7	14	4	0.6	5	i
Cc1cccc(C)c1NC(=O)c1ccc(-n2cncn2)nc1	1.9	-4	0.3	0.72	nt	nt	nt	1	nt
COc1ccccc1/C=C/C(=C1/C(=O)N(c2ccccc2)N=C1C)c1ccc(C)cc1	nt	-5	2.6	nt	nt	nt	nt	-5	nt
Cn1cccc1/C=N/N1CCN(Cc2ccccc2Cl)CC1	nt	-10	4.1	nt	10	5	3.3	59	i
Cc1ccccc1OCC(=O)NNC(=O)CN1C(=O)c2ccccc2C1=O	1.3	-10	-1.2	0.67	nt	nt	nt	-28	nt
Cc1ccc(S(=O)(=O)N2CCN(C(=O)[C@H](Cc3ccccc3)NC(=O)c3ccco3)CC2)cc1C	1.8	-1	1.3	0.71	-3	2	0.6	-3	i
CN(Cc1ccccc1)C(=O)c1ccc(NC(=O)Cc2cccc(NC(=O)C3CCN(C(=O)C4CCC4)CC3)c2)cc1	1.9	1	-0.2	0.73	-8	-7	-11	-3	i
CC(C)(CC(=O)O)Cc1nc(-c2ccc(Cl)cc2)no1	9.0	1	2.3	0.73	6	5	-0.1	nt	i
COc1ccccc1N(CC(=O)Nc1c(C)n(C)n(-c2ccccc2)c1=O)S(=O)(=O)c1ccc(C)cc1	1.5	3	2.3	0.69	-3	-5	0.4	-6	i
CC(Oc1cccc(F)c1)C(=O)Nc1ccc(N2CCOCC2)cc1 (stereo not drawn)	2.0	-4	-1.3	0.64	2	11	0.9	23	i
O=C(O)CCNS(=O)(=O)c1ccc(Oc2ccccc2Cl)cc1	1.0	2	1.3	0.66	nt	nt	nt	20	nt
C=CCN1C(=O)[C@H]2CCC=C[C@H]2[C@@H]1c1cccc(C)c1	24*	4	-3.7	0.73	-2	-6	-2.4	nt	i
CC1(C)C2CC=C(/C=N/NC(=O)c3ccc(O)cc3)C1C2 (stereo not drawn)	nt	-3	2.8	nt	nt	nt	nt	-21	nt
OCc1cccc(-c2csc(C(O)c3ccccc3)n2)c1 (stereo not drawn)	nt	nt	-1.4	nt	14	6	8.2	nt	i
COC(=O)c1c(NC(=O)CC2Sc3ccc(C(F)(F)F)cc3NC2=O)sc(C)c1C (stereo not drawn)	-2.5	-12	2.4	0.66	nt	nt	nt	-10	i
COc1ccccc1-n1c(-c2cc(-c3ccco3)[nH]n2)n[nH]c1=S	5.7	1	0.7	0.67	nt	nt	nt	nt	i
(cont.)
SMILES	UCH37 inh	Beta2AR agonist	HNF4A DNA FP	E coli growth	Ecoli rRNA inh	Ecoli rRNA inh OD600	Ecoli rRNA inh RFP	ALR inh	FGF22 binding
CC(=O)Nc1ccc(/C(C)=N/NS(=O)(=O)c2ccc(C)cc2)cc1	nt	1	-3.3	nt	nt	nt	nt	8	nt
CCOC(=O)CCCCC(=O)c1[nH]c(=O)[nH]c1CSc1nc(C)cc(C)n1	7.2	7	2.1	0.73	nt	nt	nt	nt	nt
COCCn1c(=O)[nH]c2cc(C(=O)N3CCN(c4ccccc4)CC3)ccc2c1=O	0.9	5	-1.6	0.7	nt	nt	nt	23	nt
Cc1nn(-c2ccccc2)c2sc(C(=O)NCCN3CCOCC3)cc12	-18	-7	3.9	0.69	nt	nt	nt	nt	nt
Cc1cc(=O)oc(C)c1C(=O)NCCCN1CCN(c2ccc(F)cc2)CC1	17	2	0.7	0.68	nt	nt	nt	44	nt
CCCc1ccc(OCC(=O)NNC(=S)NC(=O)c2ccco2)cc1	2.9	0	-1.1	0.7	nt	nt	nt	51	nt
COc1ccc(NC(=O)CN2CCN(S(=O)(=O)c3ccc(Cl)cc3)CC2)cc1	0.3	-1	-3.1	0.64	-20	-19	3.2	nt	i
O=c1c2ccccc2nc(-c2ccccc2)n1Cc1ccccc1	2.7	-9	3.3	0.7	-38	-53	-14	1	i
Cc1cc(C)n(CCN(C)c2nc3nonc3nc2NC2CC2)n1	9.7	-8	2.1	0.71	10	2	0.3	-7	i
CCCOc1cccc(-c2cc(C(=O)N/N=C/c3cccnc3)c3ccccc3n2)c1	nt	12	2.1	nt	-3	-4	0.9	-12	i
Cc1cc(/C=C(/C#N)c2cccc(Cl)c2)c(C)n1C	-1.7	-12	2.5	0.69	10	11	2.1	-5	i
O=c1c2cn[nH]c2[nH]c(=S)n1-c1ccccc1Cl	-1.3	-4	0.1	0.72	14	9	1.4	14	i
CCCCOc1ccc(C(=O)Nc2cccc(C)n2)cc1	0.9	-12	2.7	0.64	nt	nt	nt	5	nt
CC(=O)Nc1cccc(NC(=O)Cc2cccs2)c1	2.6	-4	0.3	0.67	13	7	0.4	-8	i
COc1cccc(-n2c(C)nc3c(cnn3-c3ccc(Cl)cc3)c2=O)c1	3.8	-6	0.2	0.68	nt	nt	nt	1	nt
COc1ccc(CC(=O)N2CCCC2)c(OC)c1	5.6	5	0.8	0.65	6	2	-3.4	0	i
Cc1ccc2cc(CN(C)S(C)(=O)=O)c(=O)[nH]c2c1	3.6	-3	-0.5	0.68	1	1	1.3	-1	i
CN(C)c1ccc(C(C(=O)NCC2CCCO2)N(Cc2ccccc2)C(=O)c2snc(C(N)=O)c2N)cc1 (stereo not drawn)	9.6	24	2.4	0.7	2	12	1.2	nt	i

3 entries out of the list, ordered by molar mass, ascending.
SMILES	UCH37 inh	Beta2AR agonist	HNF4A DNA FP	E coli growth	Ecoli rRNA inh	Ecoli rRNA inh OD600	Ecoli rRNA inh RFP	ALR inh	FGF22 binding
O=c1c2cn[nH]c2[nH]c(=S)n1-c1ccccc1Cl	-1.3	-4	0.1	0.72	14	9	1.4	14	i
CC(=O)Nc1ccc(/C(C)=N/NS(=O)(=O)c2ccc(C)cc2)cc1	nt	1	-3.3	nt	nt	nt	nt	8	nt
Cc1cc(=O)oc(C)c1C(=O)NCCCN1CCN(c2ccc(F)cc2)CC1	17	2	0.7	0.68	nt	nt	nt	44	nt
